# KCNQ2 inh: KCNQ2 channel blockers in CHO-K1 cells – cell-based, FluxOR thallium flux, B-score, primary screen (AID 2156); 1.1% of 310,000 active; B-score at 10 µM; 20 min; active compounds read low; only compounds with negative scores are shown here; some inactives read as strong as hits;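 active = fluorescence ratio B-score at most minus 3 library SDs, with starting brightness B-score within 2 library SDs, cut at about -5.5 in these data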
# Target sequence (O88943 whole entry, looked up): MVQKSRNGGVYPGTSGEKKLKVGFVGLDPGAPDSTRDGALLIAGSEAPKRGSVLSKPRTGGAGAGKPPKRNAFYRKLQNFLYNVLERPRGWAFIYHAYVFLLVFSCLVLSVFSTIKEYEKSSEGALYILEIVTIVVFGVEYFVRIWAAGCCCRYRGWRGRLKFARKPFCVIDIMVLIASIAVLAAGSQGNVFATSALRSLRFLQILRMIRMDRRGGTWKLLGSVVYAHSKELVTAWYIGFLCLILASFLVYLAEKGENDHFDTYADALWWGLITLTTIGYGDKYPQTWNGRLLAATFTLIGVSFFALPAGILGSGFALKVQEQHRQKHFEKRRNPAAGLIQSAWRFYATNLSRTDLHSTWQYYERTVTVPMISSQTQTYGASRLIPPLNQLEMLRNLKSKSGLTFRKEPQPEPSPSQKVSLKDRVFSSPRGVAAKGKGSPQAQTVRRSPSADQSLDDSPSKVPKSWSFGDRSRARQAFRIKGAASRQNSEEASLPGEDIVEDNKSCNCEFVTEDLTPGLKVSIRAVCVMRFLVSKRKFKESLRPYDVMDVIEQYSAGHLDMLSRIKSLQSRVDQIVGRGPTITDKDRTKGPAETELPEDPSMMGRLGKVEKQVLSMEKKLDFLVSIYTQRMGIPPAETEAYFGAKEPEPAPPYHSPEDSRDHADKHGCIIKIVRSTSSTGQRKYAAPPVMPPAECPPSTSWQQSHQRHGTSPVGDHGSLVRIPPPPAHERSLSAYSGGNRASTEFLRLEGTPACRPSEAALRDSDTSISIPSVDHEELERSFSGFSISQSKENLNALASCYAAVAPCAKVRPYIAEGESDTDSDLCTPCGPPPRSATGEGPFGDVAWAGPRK
# KCNQ2 inh baseline: also measured in KCNQ2 inh; calls as there; B-score; measured here: initial fluorescence intensity artifact check;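 brightness before thallium and not channel activity; 0 = typical well and far values either way flag optical interference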
# * marks the source's active call; other numbers are inactive results; i = inactive. An excerpt; count on the stated rates, not on these rows.
SMILES,KCNQ2 inh,KCNQ2 inh baseline
O=C(Nc1cccc(Cl)c1)C1=Cc2cc(Cl)ccc2OC1,i,-1.5
CCOc1cc(C2C3=C(CCCC3=O)NC3=C2C(=O)CCC3)ccc1OCCO,i,-0.1
O=C(C1=C[C@H](c2csc3ccccc23)C[C@H](OCc2ccc(CO)cc2)O1)N1CCN(Cc2ccccc2)CC1,i,1.4
CCOc1ccc(N(CC(=O)N2CCN(c3ccc(F)cc3)CC2)S(=O)(=O)c2c(C)noc2C)cc1,i,2.4
Cc1c(N/C(=N/S(=O)(=O)c2cc([N+](=O)[O-])ccc2Cl)c2ccccc2)c(=O)n(-c2ccccc2)n1C,i,-0.51
Cn1/c(=N/N=C/c2ccc(N3CCOCC3)cc2)sc2ccccc21,i,0.18
CC(=O)Nc1ccc(CN2CCCC(C(=O)c3ccc(C(F)(F)F)cc3)C2)cc1 (stereo not given),i,-0.65
Cc1cccc(C(=O)OC(C)C(=O)NC(=O)NC2CCCCC2)c1O (stereo not given),i,-0.11
CCC(C)NC(=O)COC(=O)c1oc2ccccc2c1CSc1ccc(Cl)cc1 (stereo not given),-6.1*,1.2*
O=c1cc(Cl)c2ccccc2n1-c1ccccc1,i,0.12
CCCCCC1CC1C(=O)N/N=C/c1ccc(N(C)C)cc1 (stereo not given),i,1.8
O=S(=O)(NCCc1ccccc1)c1cccc(S(=O)(=O)N2CCOCC2)c1,i,-0.06
O=S(=O)(/C=C/c1ccccc1)N1CCN(c2nc(-c3ccccc3)nc3ccccc23)CC1,i,0.01
COc1cccc(-c2cc(C(=O)NCCCN3CCOCC3)no2)c1,i,-0.03
COc1ccc(/C(O)=C2\C(=O)C(=O)N(c3cc(C)on3)C2c2ccc(OC)c(OC)c2)cc1OC (stereo not given),i,1.4
O=C(Nc1nccs1)c1cc(-c2ccco2)nc2ccccc12,i,-3.7
CCn1c(SCC(=O)N2CCCCC2C)nnc1-c1ccco1 (stereo not given),i,-0.1
Cc1ccc(NC2Sc3ccccc3NC2=O)cc1 (stereo not given),i,1.8
COc1ccc(OC)c(C(C[N+](=O)[O-])c2c(C)cc3ccccn23)c1 (stereo not given),i,-0.77
O=C(CN(Cc1ccccc1)C1=NCCS1)c1ccccc1,i,0.69
CCS(=O)(=O)c1ncc(Cl)c(C(=O)Nc2ccccc2OC)n1,i,-0.76
NC(=O)C(Cc1ccccc1)NC(=O)C12CC3CC(CC(C3)C1)C2 (stereo not given),i,0.22
O=C(CN1C(=O)NC2(CCc3ccccc32)C1=O)Nc1ccc(N2CCOCC2)cc1 (stereo not given),i,-0.26
Cc1ccccc1-c1cc(C(=O)Nc2sc(C(=O)OC(C)C)c(C)c2C#N)c2ccccc2n1,i,-0.55
CCOc1ccc(NC(=O)NC2CC(=O)N(c3ccc(OC)cc3)C2)cc1 (stereo not given),i,-0.39
O=C(NC(=S)NC(CO)Cc1ccccc1)c1ccc(F)cc1 (stereo not given),i,0.18
O=C(CSc1nc(-c2ccco2)cc(C(F)(F)F)n1)N1CCc2ccccc2C1,i,-0.65
Cc1ccc(OCC(=O)N2CCc3ccccc32)c([N+](=O)[O-])n1,i,0.07
COc1ccc(NC(=O)NC2(C(=O)N3CCN(C)CC3)CCCCC2)cc1,i,-1.5
COc1cc(C)c(CN2CCC(n3nccc3NC(=O)C3CCOC3)CC2)cc1C (stereo not given),i,1.4
COc1ccccc1N1CCN(S(=O)(=O)CCNC(=O)Cc2ccc(F)cc2)CC1,i,0.96
O=C(CS(=O)CC(=O)Nc1cccc2c1CCCC2)Nc1ccc(F)cc1 (stereo not given),i,-0.72
O=C1NN(c2ccccc2)C(=O)/C1=C/c1ccc(-c2ccc(Cl)c(C(=O)O)c2)o1,i,-1.2
Cc1ccccc1NC(=O)CN(C)S(=O)(=O)c1cccc2cccnc12,i,-0.03
CCCN(C(=O)C1CSC2(C)CCC(=O)N12)c1c(N)n(Cc2ccccc2)c(=O)[nH]c1=O (stereo not given),i,0.08
COc1cc(C)ccc1OCCOCCOc1cc(C)c(C)cc1Br,i,-1.1
Cc1ccccc1OCC(=O)Nc1cc(S(=O)(=O)N2CCCCC2)ccc1N1CCN(C)CC1,i,1.5
Cc1ccc(S(=O)(=O)NCc2ccc(C(=O)N3CCc4ccccc4C3)cc2)cc1,i,0.13
CC(C)CCNC(=O)CN(Cc1ccc(F)cc1)C(=O)CCC(=O)Nc1ccccn1,i,-2.6
CC(c1ccccc1)n1cc(C(=O)NCCCn2ccnc2)nn1 (stereo not given),i,0.36
CCOC(=O)N1CCN(C(=O)c2ccc3c(c2)N(Cc2ccccc2)CCS3)CC1,i,-1.4
COc1cccc(CNCc2ccccn2)c1OC,i,0.38
Cc1nc(Sc2ccc(Br)cc2)c(C#N)c(C)c1[N+](=O)[O-],-7.7*,-1.8*
O=C(N/N=C/c1ccc([N+](=O)[O-])cc1)c1cc(C2CC2)nc2ccccc12,i,-0.03
COc1ccc(NC(=O)NNC(=O)C(C)Oc2ccc3ccccc3c2)cc1OC (stereo not given),i,0.02
COc1ccccc1C(=O)Nc1ccnn1C1CCN(C/C=C/c2ccccc2)CC1,i,0.38
Cc1cccc(NC(=O)CSCC(=O)N(C)CC(=O)Nc2cccc(F)c2)c1,i,0.07
COC(=O)C(NS(=O)(=O)c1ccc(NC(C)=O)cc1)C(C)C (stereo not given),i,0.51
Cc1ccc(C(=O)/C=C/c2c[nH]c3ccccc23)cc1,i,-1.6
Cn1c(C(=O)O)c(C=O)c2ccccc21,i,0.58
COc1ccc(N2CCN(C(=O)c3ccc(Br)o3)CC2)cc1,i,1.2
O=C(/C=C/c1ccc([N+](=O)[O-])cc1)Oc1ccc(/C=N/NC(=O)c2ccncc2)cc1,i,-0.89
Cc1cccn2c(=O)c3cc(C#N)c(=NC(=O)c4ccco4)n(Cc4ccco4)c3nc12,i,-0.04
O=C(NCc1ccc(Cl)cc1)C1CCCCN1S(=O)(=O)c1ccccc1 (stereo not given),i,-0.3
COC(=O)c1sc(NC(=O)COc2cccc(C)c2)nc1C,i,0.38
c1cncc(COC2CCCN(Cc3nc(-c4cccs4)no3)C2)c1 (stereo not given),i,0.2
O=C(COC(=O)CCc1ccc(S(=O)(=O)N2CCOCC2)cc1)NC(=O)NC1CCCCC1,i,0.53
COc1ccc(-c2nc(CN3CCC(C(=O)NCC4CCCO4)CC3)c(C)o2)cc1OC (stereo not given),i,-1.4
CC1(C)Cc2ccccc2-c2nc(-c3ccccc3)oc(=O)c21,-7.9*,-0.92*
Cc1[nH]c(=O)nc(SCc2ccc(Cl)c(Cl)c2)c1C#N,i,-0.47

# Arranged by SMILES length (low to high): some entries from above
SMILES,KCNQ2 inh,KCNQ2 inh baseline
COc1cccc(CNCc2ccccn2)c1OC,i,0.38
Cn1c(C(=O)O)c(C=O)c2ccccc21,i,0.58
COC(=O)c1sc(NC(=O)COc2cccc(C)c2)nc1C,i,0.38
Cc1ccc(C(=O)/C=C/c2c[nH]c3ccccc23)cc1,i,-1.6
COc1ccc(N2CCN(C(=O)c3ccc(Br)o3)CC2)cc1,i,1.2
Cc1[nH]c(=O)nc(SCc2ccc(Cl)c(Cl)c2)c1C#N,i,-0.47
CC1(C)Cc2ccccc2-c2nc(-c3ccccc3)oc(=O)c21,-7.9*,-0.92*
COC(=O)C(NS(=O)(=O)c1ccc(NC(C)=O)cc1)C(C)C (stereo not given),i,0.51
Cc1nc(Sc2ccc(Br)cc2)c(C#N)c(C)c1[N+](=O)[O-],-7.7*,-1.8*
COc1ccc(NC(=O)NNC(=O)C(C)Oc2ccc3ccccc3c2)cc1OC (stereo not given),i,0.02
Cc1cccc(NC(=O)CSCC(=O)N(C)CC(=O)Nc2cccc(F)c2)c1,i,0.07
CC(C)CCNC(=O)CN(Cc1ccc(F)cc1)C(=O)CCC(=O)Nc1ccccn1,i,-2.6
Cc1ccc(S(=O)(=O)NCc2ccc(C(=O)N3CCc4ccccc4C3)cc2)cc1,i,0.13
COc1ccc(-c2nc(CN3CCC(C(=O)NCC4CCCO4)CC3)c(C)o2)cc1OC (stereo not given),i,-1.4
O=C(N/N=C/c1ccc([N+](=O)[O-])cc1)c1cc(C2CC2)nc2ccccc12,i,-0.03
O=C(COC(=O)CCc1ccc(S(=O)(=O)N2CCOCC2)cc1)NC(=O)NC1CCCCC1,i,0.53
O=C(/C=C/c1ccc([N+](=O)[O-])cc1)Oc1ccc(/C=N/NC(=O)c2ccncc2)cc1,i,-0.89

# Next results follow.
SMILES,KCNQ2 inh,KCNQ2 inh baseline
CC1CC(C#N)N(N(C)C)C1=C(C#N)C#N (stereo not given),i,0.5
COc1ccc2[nH]c(=O)c(CN(CCO)C(=O)NCc3ccccc3)cc2c1,i,0.81
O=C(COn1nnc2ccc(Cl)cc21)Nc1ccc(F)cc1,i,-0.22
O=C(CN(C(=O)c1ccccc1Cl)N1C(=O)C2C3C=CC(C3)C2C1=O)c1cccs1 (stereo not given),i,-1.4
COc1ccc(NC(=O)c2ccccc2NC(=O)C2CC=CCC2C(=O)O)cc1 (stereo not given),i,0.08
CCN(c1ccccc1)c1ncnc2c1cnn2-c1ccccc1,i,-1.1
COc1ccc(-c2nc(SCC(=O)Nc3c(F)cccc3F)n[nH]2)cc1,i,-0.72
CC(C)C(=O)Nc1cc(=O)[nH]c2ncnn12,i,0.24
N=C1/C(=C/c2coc3ccccc3c2=O)C(=O)N=C2SC(c3ccco3)=NN12,i,11
COc1cccc(CNn2cnnc2)c1OCc1ccc(F)cc1,i,-0.86
O=C1CC(c2c(F)cccc2Cl)C2=C(COC2=O)N1 (stereo not given),i,0.08
O=C(NCCc1ccccc1)c1ccc(Cl)nc1,i,-1.2
NC(=O)Cn1cc(/C=N\NS(=O)(=O)c2ccccc2)c2ccccc21,i,-1.7
CCN(CC)c1nc(Oc2ccc(=O)[nH]n2)nc(N2CCOCC2)n1,i,0.3
O=C(CSc1ccc(-c2ccccn2)nn1)NC1CCCC1,i,-0.22
Cc1ccc(CSc2nc3nc(C)cc(C)c3c(=O)[nH]2)cc1,i,0.15
COC(=O)C1=C(C)N(Cc2ccccc2)C(=NCCCCO)N[C@H]1c1ccccc1,i,0.23
Cc1cc(N2CCN(c3ccccc3)CC2)nc2ccccc12,i,1.9
COc1ccc(C(=O)/C=C/c2ccc(OC)c(COc3ccc(F)cc3)c2)cc1,i,3.1
N/C(=N\OC(=O)Cc1ccc([N+](=O)[O-])cc1)c1ccccn1,i,1.1

# Taken from the entries so far for reference:
SMILES,KCNQ2 inh,KCNQ2 inh baseline
NC(=O)C(Cc1ccccc1)NC(=O)C12CC3CC(CC(C3)C1)C2 (stereo not given),i,0.22
O=C(CN1C(=O)NC2(CCc3ccccc32)C1=O)Nc1ccc(N2CCOCC2)cc1 (stereo not given),i,-0.26
Cc1ccccc1-c1cc(C(=O)Nc2sc(C(=O)OC(C)C)c(C)c2C#N)c2ccccc2n1,i,-0.55

# Other structures follow:
SMILES,KCNQ2 inh,KCNQ2 inh baseline
CC(=O)N1CCN(C(=O)c2cc(S(=O)(=O)N(C)c3ccc(F)cc3)ccc2Cl)CC1,i,0.01
Cc1ccc(-n2ncc3c2CC(C)(C)CC3NC(=O)CCn2cncn2)cc1 (stereo not given),i,0.85
CCN(CC)CCCNc1oc(-c2ccc(OC)c(OC)c2)nc1C#N,i,1.2
CCOC(=O)C1=C(c2ccccc2)NC(=O)NC1c1cc(Cl)c(O)c(OC)c1 (stereo not given),i,-1.4
O=C(NC(=S)Nc1ccccc1Cl)C1CC1,i,0.63
CCOC(=O)C1(CCCc2ccccc2)CCN(C(=O)c2ccoc2)CC1,i,-2.4
NC(=O)NCc1ccccc1Cl,i,-0.02
O=C(CCc1nc(-c2ccccc2F)no1)NCCc1ccccc1Cl,i,0.14
CCOC(=O)c1[nH]c2ccccc2c1NC(=O)COC,i,0.77
Cc1ccc(S(=O)(=O)N(CCC(=O)Nc2ccc(OC(F)(F)F)cc2)c2ccccc2)cc1,i,2.2
CC1Oc2ccccc2N(CC(=O)c2ccc(F)cc2)C1=O (stereo not given),i,-0.29
O=C(COc1ccccc1)NC1CCCN(Cc2ccccc2F)C1 (stereo not given),i,-2.1
Cc1c(C)c2ccc(OCC(=O)Nc3nccs3)cc2oc1=O,i,0.69
O=C1CN(C(=O)COc2ccc(Cl)cc2Cl)c2ccccc2N1,i,-0.03
O=C(c1ccccc1)N1CCN(CC#Cc2ccccc2)CC1,i,0.58
O=C(CCCN1CCC(NC(=O)c2ccccc2)CC1)c1ccc(Cl)cc1,i,1.9
Cc1ccc(NC(=S)NN(C)c2nc(C)cnc2C)cc1,i,0.03
CNc1nnc(CSc2nc(C)cc(C)n2)s1,i,1.5
CCO[C@H]1OC(C(=O)NCc2nc3ccccc3[nH]2)=C[C@@H](c2ccc(C(F)(F)F)cc2)[C@@H]1CCCO,i,1.2
CCOc1cc(/C=N/Nc2nc(-c3cccs3)c(NC(C)=O)s2)ccc1O,i,-0.92
Cc1ccc(Nc2ncc3c(n2)CC(C)CC3=O)c(C)c1 (stereo not given),i,0.03
COc1cc(C2SC(C)C(=O)N2CCc2ccccc2)cc(OC)c1OC (stereo not given),i,-1.1
Cc1cccnc1NC(=O)C1CC(=O)N(c2ccc3c(c2)OCCO3)C1 (stereo not given),i,0.1
O=C(NNC1=Nc2ccccc2SC1)c1cccc([N+](=O)[O-])c1,i,0.02
Cc1ccc(NS(=O)(=O)c2ccc(-n3cccn3)cc2)cc1C,i,-0.81
C=CC[n+]1ccn(-c2nc3ccccc3nc2[N-]S(=O)(=O)c2cccs2)c1,i,-1.2
CCN(CC)S(=O)(=O)c1ccc(/C=C/C(=O)NC2CCCCC2)cc1,i,0.19
CCOC(=O)C1=C(C)N=c2s/c(=C/c3ccc(OCC(=O)O)cc3)c(=O)n2C1c1ccc(SC)cc1 (stereo not given),i,0.17
CCCOc1ccc(-c2nc(C#N)c(N3CCc4ccccc4C3)o2)cc1,i,0.42
CC(C)C(NC(=O)c1c(F)cccc1F)C(=O)N1CCN(c2ccccc2F)CC1 (stereo not given),i,0.65
COc1ccc(C(=O)Nc2ccc(C)cc2C(=O)c2ccccc2)cc1,i,-0.31
CC1=C(C(=O)Nc2ccccc2)C(c2ccc(C)o2)n2c(s/c(=C\c3ccco3)c2=O)=N1 (stereo not given),i,1.4
CCCCOC(=O)n1c(SCC(=O)N(CC)CC)nc2ccccc21,i,-0.56
